Sfp inh: inhibitors of Bacillus subtilis Sfp phosphopantetheinyl transferase | Q9F4F7 | Biochemical Sfp PPTase activity, qHTS | Potency, µM, without a hit: max response, negative = inhibition, actives largely listed as inhibitors | 3.5% of 310,000 active | AID 1490; active = well fitted inhibition curve with a large enough effect; inconclusive = small, poorly fitted or top-dose-only effect, or another doubt; inactive = no such curve, though single readings can be large or run the other way;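 also: the enzyme is Sfp with the accession as filed and its product quenches rhodamine fluorescence; potency is read from the fitted curve at half-maximal effect; 0% = enzyme reaction without inhibitor and -100% = no enzyme wells; top concentration of the series not given in the record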
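Fluorescence-quenching assay with 15 nM Sfp, 5 uM rhodamine-CoA and 12.5 uM BHQ-2-labelled ybbR peptide in pH 7.6 Hepes/MgCl2 buffer. Enzyme was pre-incubated with compound for 15 min at room temperature. Rate was taken from the 30-min fluorescence change (525/598 nm).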
ClpP mod: qHTS Assay for Activators of ClpP | Potency, µM (series often up to 57.5 µM), without a hit: at the top dose activity change, negative = active | 1.9% of 340,000 active | purified B. subtilis ClpP, FRET peptide cleavage, 20 min | AID 651965, 2013; active = well fitted falling curve with a large enough effect; inconclusive = small, poorly fitted or top-dose-only effect; inactive = no such curve, though single readings can be large or run the other way; also: potency is read from the fitted curve at half-maximal effect; the source files actives as falling curves though it sought activators and does not explain the sign; nearly all actives have a fitted effect of over 65% in size; many hits overshoot -100%
Target sequence (P80244 whole entry, looked up): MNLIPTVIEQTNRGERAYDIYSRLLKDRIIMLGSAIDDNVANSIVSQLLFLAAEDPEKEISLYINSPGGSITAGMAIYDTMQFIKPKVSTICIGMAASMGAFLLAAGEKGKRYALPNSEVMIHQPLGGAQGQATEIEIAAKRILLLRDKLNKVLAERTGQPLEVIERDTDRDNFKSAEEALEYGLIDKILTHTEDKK
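ClpP 10 microg/mL final, pH 8 Tris/KCl buffer with BSA, glycerol, Tween-20; compound pinned in; FRET-FV substrate; RT 20 min; Ex320/Em430; ΔFRET vs ADEP 5.8 microM, DMSO, no enzyme.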
PINK1 expr mod: PINK1 expression modulation; 0.2% of 410,000 active; PINK1 immunofluorescence, high-content cytometry, 24 h; Potency, µM (highest dose often 76.6 µM), for the others: at the top dose activation (PINK1 increase), usual class: activators; AID 624263; active = well fitted activation curve with a large enough effect; inconclusive = small, poorly fitted or top-dose-only effect; inactive = flat fitted curve, though single readings scatter; cell line not stated here;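 also: potency is read from the fitted curve at half-maximal effect; % of control where 0% means no effect; nearly all actives have a fitted effect of over 65% in size; a mitochondrial uncoupler was the plate control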
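PINK1 protein, normally rapidly degraded, was detected by immunofluorescence after 24 hour compound treatment of a stable cell line. Titration data (5 concentrations) came from laser-scanning cytometry, with CCCP-treated wells as controls.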
TRPV1 PAM: human TRPV1 potentiation; TRPV1-expressing cells, Fluo-8 calcium influx, capsaicin EC20 potentiation; host cell line not named in the record; control for the full effect not named in the record; 0.02% of 320,000 active; potentiation, % at 8.33 µM; Q8NER1; active means potentiation above 80%; inconclusive means 30% to 80%; inactive means below 30%; also: 0% is about no effect
Target sequence (Q8NER1 whole entry, looked up): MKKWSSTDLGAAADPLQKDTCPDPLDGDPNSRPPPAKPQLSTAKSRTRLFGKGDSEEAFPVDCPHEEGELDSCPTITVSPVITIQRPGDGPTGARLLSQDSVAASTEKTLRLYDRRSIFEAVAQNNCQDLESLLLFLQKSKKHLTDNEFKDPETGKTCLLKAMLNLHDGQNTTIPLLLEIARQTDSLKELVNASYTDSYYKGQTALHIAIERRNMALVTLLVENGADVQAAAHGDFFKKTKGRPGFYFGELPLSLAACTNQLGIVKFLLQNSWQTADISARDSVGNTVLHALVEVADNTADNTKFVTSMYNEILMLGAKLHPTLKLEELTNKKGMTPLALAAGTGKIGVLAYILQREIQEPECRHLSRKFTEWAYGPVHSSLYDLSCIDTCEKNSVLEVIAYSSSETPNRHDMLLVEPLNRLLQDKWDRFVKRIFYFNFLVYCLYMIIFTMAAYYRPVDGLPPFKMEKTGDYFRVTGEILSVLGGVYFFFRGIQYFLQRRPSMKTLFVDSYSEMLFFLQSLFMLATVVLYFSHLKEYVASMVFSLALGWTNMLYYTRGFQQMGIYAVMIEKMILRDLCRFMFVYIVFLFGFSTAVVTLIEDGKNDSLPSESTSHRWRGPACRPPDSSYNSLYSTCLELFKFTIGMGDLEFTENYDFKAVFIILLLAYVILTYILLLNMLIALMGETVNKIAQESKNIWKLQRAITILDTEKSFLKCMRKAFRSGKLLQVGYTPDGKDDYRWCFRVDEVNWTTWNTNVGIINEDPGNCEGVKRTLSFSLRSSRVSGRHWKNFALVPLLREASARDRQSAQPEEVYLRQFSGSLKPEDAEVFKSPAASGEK
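Cells expressing TRPV1 were dye-loaded with Fluo-8 and read kinetically: 10 s baseline, 3 min after compound (agonist portion), then 2 min after EC20 capsaicin (allosteric enhancer portion). Calcium-bound dye fluorescence at 480/520 nm.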
TRPML1 inh: inhibitors of human TRPML1 channel; activity change, negative = inhibition, % (no concentration beside the values); TRPML1-inducible cells, Ca2+ dye fluorescence, FDSS; stronger effect = lower value; inhibition of EC80 agonist-evoked calcium signal; Q9GZU1; 0.02% of 390,000 active; in the data active means activity change below about -50%; inconclusive means about -30% to -50%; inactive means above about -30%;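 also: stimulus is agonist 54-4 at its EC80 concentration; % is scaled to controls: 0 for no effect and ±100 for the full control effect; compound concentration not given in the record; the text of the record puts the active cut at -80%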
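Calcium fluorescence in TRPML1-DL cells induced overnight with Tet: a 110 s read after compound pin addition, then a 110 s antagonist read after challenge with 54-4 at 4 uM final (EC80).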
Menin MLL FP FL: displaces fluorescein MLL peptide from human menin; Fluorescence polarization, fluorescein-MLL peptide displacement from menin; FP activity change, % at 61.4 µM; 290,000 tested, under 10 active; AID 1766; inconclusive = falling polarisation curve, or a change in total fluorescence; inactive = total fluorescence flat and polarisation flat or rising; no compound was filed as active; the % refers to the polarisation; negative = inhibition;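 also: % of control where 0% means no effect; inhibitors lower the polarisation; unlabelled MLL peptide was the positive control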
TRPML1 ag: human mucolipin-1 channel agonism | Q9GZU1 | TRPML1-expressing cells, Ca2+ dye fluorescence, FDSS; host cell line not named in the record; reference of the full effect not given here | activation, % (no concentration beside the values) | 0.12% of 410,000 active; in the data active = activation above about 50%; inconclusive = about 30% to 50%; inactive = below about 30%; also: 0% is about no effect; the text of the record puts the active cut at 80%
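In this qHTS format, compounds were pin-transferred onto Ca8-dye-loaded TRPML1-DL cells induced with Tet overnight, and intracellular Ca2+ fluorescence was recorded kinetically for 110 s after a 10 s baseline. A subsequent 4uM final 54-4 (EC80) addition followed by a second 110 s read served as the antagonist phase.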
* hit, by the source's call; ? = inconclusive; . = not tested or not shown; [ ] = another dose, or the depositor's remark.

SMILES	Sfp inh	ClpP mod	PINK1 expr mod	TRPV1 PAM	TRPML1 inh	Menin MLL FP FL	TRPML1 ag
Cc1cccn2c(=O)c3cc(C(=O)NCc4cccnc4)c(=N)n(C(C)C)c3nc12	9%	33%	0.5%	-22	4	1.7	1.1
COc1cccc(/C=N/NC(=O)c2[nH]c(C)c(C(=O)N/N=C/c3cccc(OC)c3)c2C)c1	1%	-17%	-0.3%	3	9	3.7	0.4
COCCCNC(=S)Nc1ccc(OC(F)F)cc1C	1%	1.4%	0.5%	3	33	1.1	2.6
COCCNC(=S)N/N=C/c1ccc([N+](=O)[O-])cc1	3%	.	2.7%	-6	15	1.3	0.4
CCCCc1cc(=O)oc2cc(O)ccc12	-18%	.	-0.9%	-7	-11	-1.7	-0.2
CC(=O)Nc1ccc(-c2sc(Nc3ccccc3)n[n+]2C)cc1	-2%	-8.7%	-0.1%	-8	-9	-6.0	-0.2
O=C(c1ccc(N2CCN(C(=O)c3cccc(F)c3)CC2)cc1)c1cccc(F)c1	-2%	-1.8%	0.8%	-20	-7	.	1.7
COc1ccc([N+](=O)[O-])cc1NC(=S)NC(NC(=O)Cc1ccc(OC)c(OC)c1)C(Cl)(Cl)Cl (stereo not given)	-14%	1.8%	5.2%	-12	28	-0.9	0.5
CC(=O)Nc1ccc(S(=O)(=O)Nc2ccc3[nH]c(=O)[nH]c3c2)cc1	-12%	.	1.1%	4	-10	?	0.0
O=[N+]([O-])c1cc(Br)c(Nc2ccccc2)c([N+](=O)[O-])c1	-8%	0.9%	-1.5%	6	26	2.2	2.6
C=CCn1c(SCC(=O)c2c(N)n(CCC)c(=O)n(C)c2=O)nc2sc(CC)cc2c1=O	-2%	0.9%	5.4%	-6	1	-0.9	0.7
COC(=O)c1c(NC(=O)CC2SC(N)=NC2=O)sc2c1CCCC2 (stereo not given)	-2%	-5.0%	-7.0%[38.3 µM]	5	6	-6.0	-0.6
Cc1nc(/C(N)=N/OC(=O)c2ccc(Cl)cc2)c(C(F)(F)F)o1	-2%	0.0%	2.2%	-12	11	-1.2	3.9
O=c1nc(N/N=C/c2ccco2)cn[nH]1	32µM*	.	2.0%	3	33	0.2	0.1
COc1ccc(N2C(=O)CC(N3CCN(S(=O)(=O)c4c(C)cc(C)cc4C)CC3)C2=O)cc1 (stereo not given)	.	-1.3%	0.8%	0	2	.	2.3
Cc1ccc(N(CC(=O)NCc2ccccc2)C(=O)CCC(=O)Nc2ccccn2)cc1C	13%	.	1.8%	3	2	-1.1	-0.3
Cc1nnc(NC(=O)c2nc(S(=O)(=O)Cc3ccccc3C)ncc2Cl)s1	?	-0.1%	-1.3%	0	0	-1.8	-0.6
CCn1c(-c2nn(C)cc2Cl)n[nH]c1=S	?	-2.4%	3.2%	27	-11	-0.3	-0.2
COC(=O)Cn1c(CCS(=O)(=O)c2ccc(C)c(C)c2)nc2ccccc21	11%	-2.8%	.	4	2	6.8	1.1
CCCCN(Cc1ccccc1)C(=O)CCN1C(=O)C2C3C=CC(C3)C2C1=O (stereo not given)	-3%	.	-0.2%	-10	35	-2.5	0.6
O=C(O)CCCn1cc(NC(=O)COc2cc(F)ccc2[N+](=O)[O-])cn1	-3%	.	-1.0%	3	-3	2.3	0.5
CCOc1ccc(CNC(=O)c2ccc3nc(N4CCOCC4)sc3c2)cc1	12%	-13%	8.9%	-16	3	-4.9	0.2
COC(=O)Cn1c(CN2CCN(C(=O)c3ccco3)CC2)nc2c1c(=O)n(C)c(=O)n2C	13%	-2.4%	-1.1%	-8	3	-0.7	-0.4
O=C(CSc1nnc(-c2ccco2)o1)c1ccc([N+](=O)[O-])cc1	-19%	0.2%	-0.1%	21	8	1.4	1.2
COCCn1c(C)cc(O)c(C(c2ccc(OC)cc2)N2CCN(c3ccccc3)CC2)c1=O (stereo not given)	.	-3.1%	0.1%	.	5	.	1.3

Three compounds picked at random from those above, as already listed:
SMILES	Sfp inh	ClpP mod	PINK1 expr mod	TRPV1 PAM	TRPML1 inh	Menin MLL FP FL	TRPML1 ag
C=CCn1c(SCC(=O)c2c(N)n(CCC)c(=O)n(C)c2=O)nc2sc(CC)cc2c1=O	-2%	0.9%	5.4%	-6	1	-0.9	0.7
Cc1ccc(N(CC(=O)NCc2ccccc2)C(=O)CCC(=O)Nc2ccccn2)cc1C	13%	.	1.8%	3	2	-1.1	-0.3
Cc1nc(/C(N)=N/OC(=O)c2ccc(Cl)cc2)c(C(F)(F)F)o1	-2%	0.0%	2.2%	-12	11	-1.2	3.9

(cont.)
SMILES	Sfp inh	ClpP mod	PINK1 expr mod	TRPV1 PAM	TRPML1 inh	Menin MLL FP FL	TRPML1 ag
CC(=O)Nc1ccc(S(=O)(=O)NNC(=O)c2sc(=S)n(C)c2C)cc1	-21%	1.3%	?	-3	-8	1.1	0.1
CC(C(=O)NC1C=CS(=O)(=O)C1)N1C(=O)/C(=C/c2cccc(Cl)c2)SC1=S (stereo not given)	-8%	0.2%	-0.8%	1	20	.	-0.9
Cc1ccc(C(=O)NC2=NC(c3ccc(C)cc3)CC(=O)N2)cc1 (stereo not given)	.	-2.9%	-1.1%	.	13	.	2.1
CN(C)c1nnnn1Cc1ccc(Cl)cc1Cl	-6%	.	-1.3%	-7	13	-2.4	-0.1
Cc1cc(C)nc(SCC(=O)Nc2ccc(S(=O)(=O)Nc3onc(C)c3C)cc2)n1	14%	0.5%	-0.4%	.	16	-3.8	-0.1
Cn1c(O)c(/C=C2\C=NN=C2c2ccccc2)sc1=S	-20%	-0.1%	3.1%	7	-14	0.9	0.8
COc1ccc(NC(=S)NCc2cccn2C)cc1	?	.	-0.3%	-9	9	-0.2	0.1
COC(=O)[C@]1(C)N[C@H](c2ccc(SC3CCCCC3)cc2)[C@@H]2C(=O)N(C)C(=O)[C@@H]21	.	-0.2%	2.6%	-16	42	.	-0.3
CCc1ccc(NC(=O)C2CC(=O)N=C(N)S2)cc1 (stereo not given)	0%	5.7%	0.3%	-4	4	0.2	6.9
COc1cccc(NC(=O)[C@H](C)NC(=O)N2CCn3c2nc2ccccc23)c1	3%	-0.1%	0.7%	29	-16	.	-1.6
CCOC(=O)c1ccc(NC(=O)NCc2ccccc2)cc1	-1%	.	2.7%	-9	17	-6.8	0.4
N#CC1=C(N)C(C#N)(C#N)[C@H](c2ccncc2)[C@H]2CC3(CC=C12)OCCO3	9%	10%	?	-5	7	?	1.2
O=C1c2ccccc2C(Nc2ccc(Cl)cn2)N1c1ccccn1 (stereo not given)	4%	-3.0%	1.1%	?	-7	1.5	-0.7
O=C(Cc1ccc(Cl)cc1)c1c[nH]c(C(=O)NCc2cccnc2)c1	18%	-1.0%	0.4%	11	5	-1.3	2.0
COc1cccc(CNC(=O)c2ccncc2)c1	-5%	-0.6%	-0.6%	-11	-3	.	0.9
COc1cccc(C(=O)O/N=C(\N)c2ccc(C)cc2)c1	1%	-6.4%	1.2%	7	-14	-1.2	2.6
COc1ccc(N2CCN(Cc3nc4c(c(=O)n(C)c(=O)n4C)n3Cc3ccccc3C)CC2)cc1	.	0.3%	0.6%	.	1	.	-0.1
COc1ccc(CN2CCCCC2C)cc1C (stereo not given)	10%	-0.4%	-0.6%	6	-1	2.6	-0.6
O=C(CSc1nc2ncc(Cl)cc2[nH]1)Nc1ccccc1-c1ccccc1	-5%	-2.9%	?	-5	-10	-0.1	1.8
Cc1ccc2nc(Cl)c3cc(C(=O)NCCCN(C)Cc4ccccc4)sc3c2c1	.	-13%	-2.1%	.	-9	.	0.5
O=C(NC1CC1)C1=C[C@H](c2c[nH]c3ccccc23)C[C@H](OCCCCO)O1	22%	-5.2%	0.3%	5	14	0.9	0.1
Cn1cccc1/C=C1\SC(=S)N(NC(=O)c2ccccc2O)C1=O	?	.	20%	-2	0	?	0.6
N#CCCn1c(=O)c(-c2ccc(F)cc2)nc2cnc(Oc3ccccc3)nc21	4%	.	8.8%	.	.	0.1	.
CCN1C(=O)CC(c2ccccc2)CC1=O	.	-2.1%	2.8%	-10	6	.	-0.4
O=C(COC(=O)c1cc([N+](=O)[O-])ccc1NCc1ccccc1)NCc1ccccc1Cl	?	-1.2%	8.2%	18	14	-0.7	-0.6
SMILES	Sfp inh	ClpP mod	PINK1 expr mod	TRPV1 PAM	TRPML1 inh	Menin MLL FP FL	TRPML1 ag
CC(=O)Nc1ccc2nc(SCCOc3ccc(C)cc3)sc2c1	.	-1.1%	1.8%	.	15	.	-0.2
Cc1ccc(Cn2nc(C)c(NC(=O)CSc3nc4c(c(C(F)(F)F)n3)CCc3ccccc3-4)c2C)cc1	10%	-1.9%	-0.6%	0	9	-0.7	0.2
Cc1ccc(S(=O)(=O)NN(Cc2ccccc2)Cc2ccccc2)cc1	.	1.0%	3.2%	.	-5	.	0.8
CC(=O)N1CCN(C(=O)c2c(-c3ccccc3)noc2C)CC1	.	2.4%	1.6%	-9	0	.	0.5
CN(C)CCCNC(NC(=O)c1cccs1)C(Cl)(Cl)Cl (stereo not given)	1%	-2.3%	0.0%	8	-12	-3.5	0.1
O=C(NCCS(=O)(=O)NCc1ccco1)c1ccccc1	.	1.0%	0.4%	8	57	.	-0.5
NCCCNc1ccc(Br)cn1	.	-4.4%	0.1%	.	.	.	0.5
Cc1ccccc1-c1nnn(CC(=O)Nc2cccc(S(N)(=O)=O)c2)n1	9%	0.0%	-0.6%	-10	29	-1.7	-0.4
C[C@@H](NC(=O)[C@@H]1Cc2ccccc2CN1)C(=O)NCC1CCCO1 (stereo not given in full)	3%	-3.7%	-0.9%	?	-8	.	0.1
Cc1nn(C(C)C(=O)NCCCc2ccccc2)c(=O)c2cc3occc3n12 (stereo not given)	11%	-2.2%	1.5%	-11	-8	7.0	0.7
CC(C)(C)C(=O)Nc1ccccc1C(=O)OCC(=O)c1ccc2c(c1)OCCO2	?	0.2%	2.6%	12	20	-2.4	-0.2
CCc1ccc2c(c1)C1(C(=O)N2)N2CCCC2C(C(=O)c2ccc3ccccc3c2)C12C(=O)Nc1ccccc12 (stereo not given)	0%	-1.7%	-1.5%	3	-10	5.0	-0.1
CCN(CC)c1ccc(N2C(=O)/C(=C/c3cccs3)SC2=S)cc1	-15%	-0.1%	-2.3%	-1	3	5.4	2.1
O=C1c2ccccc2OC2(C=Cc3ccccc3O2)N1Cc1ccccc1 (stereo not given)	-6%	-4.5%	1.7%	-6	24	2.0	0.4
Cc1ccc(S(=O)(=O)N[C@H](C(=O)NCC2CCC(C(=O)O)CC2)C(C)C)cc1 (stereo not given in full)	2%	0.2%	-1.0%	-17	10	1.5	-0.9
